BmaI1 – BmaI1 acyl-homoserine lactone synthase inhibition – biochemical, fluorescence intensity, with counterscreen (AID 720554); inhibition, %; 0.4% of 12,000 active; BmaI1 enzyme assay, fluorescence intensity; stronger effect = higher value; test concentration not given here; a few actives read low; strong numbers were not always called active;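 active means both replicates within 2 robust z-scores of the inhibited control and a quiet counterscreen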;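 further: 0% = uninhibited enzyme and 100% = inhibited control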
BmaI1 counterscreen – also measured in BmaI1; calls as there; inhibition, %; measured here: counterscreen; design of the counterscreen not given here;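 first of two replicates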
An asterisk follows results filed as active.

SMILES	BmaI1	BmaI1 counterscreen
C1CCC(Nc2nnc(SCC3CCCCO3)s2)CC1 (centres undefined)	2	-2
COc1cccc(-c2nnc(SCC3CNC(=O)O3)n2-c2ccc(Cl)cc2)c1 (centres undefined)	13	6
CN1CC(=O)NC(=O)C1	20	2
CN(C)CCN(Cc1ccccc1)c1ccccn1	0	2
O=C(CN1CCN(S(=O)(=O)/C=C/c2ccccc2)CC1)NCC(F)(F)F	22	4
CN1CCN(c2ccc(Cl)cc2NC(=O)c2cccc(S(=O)(=O)N3CCc4ccccc43)c2)CC1	12	2
COC(=O)Cn1cnc2ccccc2c1=O	10	0
O=C(COc1nc2ccccc2nc1N1CCOCC1)N1CCc2ccccc21	16	8
O=C(c1ccc2nc[nH]c2c1)N1CCc2ccccc2C1	16	-2
CCCn1c(SCc2nc(N)nc(Nc3ccc(C)cc3)n2)n[nH]c1=O	20	2
Cc1nc(-c2ccc3c(c2)CCN3c2ncnc3sccc23)cs1	17	14
COc1ccc(CCN)cc1OC	-6	7
CC(C)[C@H](NS(=O)(=O)c1ccc2c(c1)OCCO2)C(=O)NC1CCCCCC1	16	2
S=C(NCc1ccccc1)NN=C1CCCC1	-12	9
COc1ccc2c(CC(=O)OCC(=O)C(C)(C)C)coc2c1	17	8
CCn1c(SCC(=O)Nc2cc(C)on2)nc2sc(C)c(C)c2c1=O	12	8
CCN(c1ccccc1)S(=O)(=O)c1ccc(C(=O)OCC#N)cc1	12	3
Cc1nc2cc3c(cc2s1)OCO3	11	12
COc1cc2c(cc1OC)CN(C(=O)c1cccc(S(=O)(=O)N3CCCCC3)c1)CC2	-4	-2
O=C(COc1ncnc2c1cnn2-c1ccccc1)N1CCN(S(=O)(=O)c2ccc(Cl)cc2)CC1	4	0
COC(=O)c1cccc(OCC(O)CNCCC2=CCCCC2)c1 (centres undefined)	-9	-10
O=C1CN(C(=O)COc2ccc(Cl)cc2)C2(CCCCC2)C(=O)N1	-6	-4
Nc1nc2ccccc2[nH]1	18	49
COc1ccc(C(C)N)cc1Br (centres undefined)	1	2
Cc1ncc([N+](=O)[O-])n1CCO	0	6
C=CCNC(=O)c1cc(C)nc2ccccc12	14	10
S=C(NCc1ccccc1)N/N=C/c1ccccn1	3	-21
CC1Cc2cc(C(=O)COC(=O)c3n[nH]c(=O)c4ccccc34)ccc2N1S(C)(=O)=O (centres undefined)	16	10
CC1N(C)c2cc(CN3C(=O)c4ccccc4C3=O)ccc2C1(C)C (centres undefined)	2	-6
CC(C)C(C)(C#N)NC(=O)CSc1nncn1C (centres undefined)	17	12
CCN(CC)S(=O)(=O)c1ccc(C(=O)C2=C3SC=C(c4ccc(OC)cc4)N3CC2)cc1	-8	-8
COC(=O)c1cc2c(C)nn(Cc3ccccc3Cl)c2s1	7	4
Cc1cccc(NC(=O)CN2NS(=O)(=O)c3ccccc3C2=O)c1	2	7
COc1ccc2[nH]cc(C3=CCNCC3)c2c1	12	36
CC(OC(=O)c1ccccc1NS(C)(=O)=O)c1nnc(-c2cccs2)o1 (centres undefined)	10	4
CC(OC(=O)c1cccc(N(C)C)c1)C(=O)N1CCc2ccccc21 (centres undefined)	1	-2
Brc1ccc(CN2CCNCC2)s1	-4	2
COc1cccc(C(=O)OC(C)C(=O)Nc2ccc(N(C)C)cc2)c1 (centres undefined)	2	-34
Cc1ccc(NC(=O)Cn2ccccc2=O)cc1	7	6
O=C(OCC(=O)N(Cc1ccccc1)C1CCS(=O)(=O)C1)c1cc2c(s1)CCC2 (centres undefined)	4	9
CNC(=O)NC(=O)CSc1ccc(NC(C)=O)cc1	-12	-8
COc1ccc(C(=O)Nc2ccc(N3CCCCC3)cc2)cc1	22	-2
COc1ccc(-n2c(O)c(C=NCC(C)(C)N3CCOCC3)c3ccccc3c2=O)cc1OC	14	2
Cn1cccc1C(=O)OCC(=O)c1ccc(Br)cc1	6	4
O=S(=O)(c1ccccc1F)N(Cc1ccco1)Cc1nnc(-c2ccc(Cl)cc2)o1	18	3
O=C(NCC(=O)N1CCN(S(=O)(=O)/C=C/c2ccccc2)CC1)c1ccccc1F	14	12
CC(=O)Nc1ccc(SC(C)c2nc3ccccc3c(=O)[nH]2)cc1 (centres undefined)	46	8
CC(Nc1ccccc1)C(=O)O (centres undefined)	21	-2
CCOc1ncccc1C(=O)N1CCSC1=NCCc1ccccc1	3	2
Cc1ccccc1-n1cnnc1SCc1nnc(-c2ccccc2Br)o1	14	0
CCCNC(=O)C1CN(CC(=O)NC2CCCCC2)c2ccccc2O1 (centres undefined)	22	6
CCn1cc(C(=O)NCC23CC4CC(CC(C4)C2)C3)c(=O)c2ccc(C)nc21	14	13
N#Cc1ccccc1OCc1csc(-c2cccs2)n1	-2	-3
c1ccc(Nc2nncs2)cc1	15	12
O=C(OCc1cccc(Br)c1)C1=COCCO1	12	8
FC(F)(F)c1ccccc1/C=N/n1cn[nH]c1=S	74	46
O=C(NCCO)c1sc2cc(F)ccc2c1Cl	22	8
CNS(=O)(=O)c1cccc(C(=O)OCc2cc(=O)oc3c(C)c(O)ccc23)c1	11	12
CCC(C)C(NC(=O)c1cccc(Cl)c1)C(=O)OC (centres undefined)	13	12
N#CCSc1nnc(Cc2cccs2)n1C1CCCCC1	17	8

Continuation.
SMILES	BmaI1	BmaI1 counterscreen
CN1C(=O)CN=C(c2ccccc2)c2cc(Cl)ccc21	22	50
Cc1noc(C)c1CSc1nc2ccccc2c(=O)n1Cc1ccccc1Cl	6	2
CC(C)n1c(O)c(N=NC(=S)NCCN2CCOCC2)c2ccccc21	7	4
C=CCN1CC[C@]23c4c5ccc(O)c4O[C@H]2C(=O)CC[C@@]3(O)[C@H]1C5	7	-2
Cc1noc(C)c1S(=O)(=O)N1CCCN(C/C(O)=C(\C#N)c2nc3ccccc3[nH]2)CC1	1	-5
Cc1cc(-n2c(C)cc(C(=O)CSc3nnc(COc4ccccc4Cl)o3)c2C)no1	18	8
O=C(CCCSc1nc2ccccc2s1)Nc1nccs1	14	8
CCN(CC)C(=O)c1cccc(NC(=O)c2cc(-c3ccco3)nc3ccccc23)c1	26	-4
COc1cc2c(cc1NC(=O)COC(=O)C1CC(=O)N(Cc3ccco3)C1)oc1ccccc12 (centres undefined)	15	8
Cc1ccc(SCC(=O)Nc2cccc3nsnc23)c(C)c1	36	-2
COc1cc2c(cc1OC)CN(C(=O)c1ccc(Cl)nc1)CC2	18	8
O=C(OCCCCN1C(=O)c2ccccc2C1=O)c1ccc(-n2cnnn2)cc1	10	6

Arranged by SMILES length (ascending): part of the list above
SMILES	BmaI1	BmaI1 counterscreen
c1ccc(Nc2nncs2)cc1	15	12
CC(Nc1ccccc1)C(=O)O (centres undefined)	21	-2
Brc1ccc(CN2CCNCC2)s1	-4	2
O=C(OCc1cccc(Br)c1)C1=COCCO1	12	8
S=C(NCc1ccccc1)N/N=C/c1ccccn1	3	-21
CC(C)C(C)(C#N)NC(=O)CSc1nncn1C (centres undefined)	17	12
CNC(=O)NC(=O)CSc1ccc(NC(C)=O)cc1	-12	-8
FC(F)(F)c1ccccc1/C=N/n1cn[nH]c1=S	74	46
CCC(C)C(NC(=O)c1cccc(Cl)c1)C(=O)OC (centres undefined)	13	12
CN1C(=O)CN=C(c2ccccc2)c2cc(Cl)ccc21	22	50
COC(=O)c1cccc(OCC(O)CNCCC2=CCCCC2)c1 (centres undefined)	-9	-10
COc1ccc2c(CC(=O)OCC(=O)C(C)(C)C)coc2c1	17	8
Cc1ccccc1-n1cnnc1SCc1nnc(-c2ccccc2Br)o1	14	0
CC(=O)Nc1ccc(SC(C)c2nc3ccccc3c(=O)[nH]2)cc1 (centres undefined)	46	8
O=S(=O)(c1ccccc1F)N(Cc1ccco1)Cc1nnc(-c2ccc(Cl)cc2)o1	18	3
O=C(NCC(=O)N1CCN(S(=O)(=O)/C=C/c2ccccc2)CC1)c1ccccc1F	14	12
COc1ccc(-n2c(O)c(C=NCC(C)(C)N3CCOCC3)c3ccccc3c2=O)cc1OC	14	2
CC1Cc2cc(C(=O)COC(=O)c3n[nH]c(=O)c4ccccc34)ccc2N1S(C)(=O)=O (centres undefined)	16	10
CN1CCN(c2ccc(Cl)cc2NC(=O)c2cccc(S(=O)(=O)N3CCc4ccccc43)c2)CC1	12	2

(list continues)
SMILES	BmaI1	BmaI1 counterscreen
CCOC(=O)c1c(C)[nH]c(C)c1C(=O)CSC1=Nc2ccccc2C2CC=NN12 (centres undefined)	4	-16
CCCc1cc(=O)[nH]c(SC/C(O)=C(\C#N)c2nc3ccccc3[nH]2)n1	13	10
O=C(/C=C/c1ccccc1)NC(=O)c1ccccc1O	22	12
CCc1ccc(N(C(C)=O)c2nc(CSc3nnc4n3CCCCC4)cs2)cc1	1	-6
NC(=O)c1ccccc1OCc1cn2cc(Cl)ccc2n1	7	2
O=C(Nc1ccc2c(c1)OCCCO2)c1cn(-c2ccccc2)nc1-c1cccs1	8	13
CN(C)Cc1n[nH]c(=S)o1	60	10
NC(=O)C(C(=O)/C=C/c1ccccc1)=C1SCCS1	4	4
NC(=O)c1cc(-c2csc(-c3ccccn3)n2)ccc1O	22	86
C=CCn1c(C)cc(C(=O)CSc2nc3ccccc3[nH]2)c1C	10	0
O=[N+]([O-])c1cccc2cn[nH]c12	4	11
COc1cccc(Nc2nc3ccccc3nc2NS(=O)(=O)c2cccs2)c1	23	8
C=CCNc1nc(C(=O)OCC(=O)N(C)C2CCS(=O)(=O)C2)cs1 (centres undefined)	15	0
Oc1ccc(/C=N/n2c(-c3ccco3)csc2=Nc2ccc(F)cc2F)c(O)c1	34	19
Cc1ccc(C)c(OC(=O)CCN2C(=O)C3CC=CCC3C2=O)c1C (centres undefined)	22	9
Cn1c(SCc2nc3sc4c(c3c(=O)[nH]2)CCCC4)nnc1C(F)(F)F	21	7
CCNc1nc(-c2ccc(NC(=O)CC)cc2)cs1	49	18
CN1C(=S)Cc2cc(Br)ccc21	0	-1
O=C(C1COc2ccccc2O1)N(CC1CCCO1)c1nc2ccccc2s1 (centres undefined)	10	-1
Cc1cc2nc(Oc3ccccc3)c3ccccc3n2n1	-8	-9
Cc1ccc(C)n1-c1ccc(C(=O)OCC(=O)N2CCCC2)cc1	-25	-26
Cc1ccc(NC(=O)Cn2c(=O)n3nc(C)nc3c3ccccc32)cc1	9	6
O=C(OCCN1C(=O)c2ccccc2C1=O)c1ccc(-n2cnnn2)cc1	4	2
Cn1c(SCc2nnc(-c3ccc(Cl)cc3)o2)nc2sccc2c1=O	26	6
COc1nc2sccn2c1/C=N/N1CC(=O)NC1=O	2	3
CCCNC(=O)c1ccc2ncsc2c1	42	0
O=C(OCC(=O)N1CCCCC1)c1cccc2ccccc12	16	14
CNC(=S)NN(Cc1ccccc1)c1ccccc1	-6	-16
CCC(CC)NC(=O)CN1C(=O)C2CC=CCC2C1=O (centres undefined)	14	12
C/C(=N\NC(=O)c1ccc(NS(=O)(=O)c2cccs2)cc1)c1cccs1	14	8
Cc1nn(C(=O)C2CC2)c(C)c1Sc1ccccc1	11	6
CC(=O)Nc1ccc2c(CSc3nncs3)cc(=O)oc2c1	-5	-4
COc1ccc(C)cc1-n1c(SCC#N)nc2sc(C)c(C)c2c1=O	16	6
COC(=O)C1CCN(C(=O)/C=C/c2ccccc2)CC1	12	-4
COc1ccc(CCNC(=O)C(C#N)c2nc3ccccc3nc2N2CC(C)OC(C)C2)cc1OC (centres undefined)	10	4
COc1ccc(CNC(=O)CCC2CCCC2)cc1OC	-2	2
CCCOc1ccc(C=Nc2ccc(N3CCN(C)CC3)cc2C)c(O)c1	76	9
O=C1CCC(=O)N1CC(=O)N1N=C(c2ccc(Cl)cc2)CC1c1ccco1 (centres undefined)	10	7
O=C(/C=C/c1cccs1)N(CC1CCCO1)C1CCS(=O)(=O)C1 (centres undefined)	5	6
Cc1cc(NCC(=O)Nc2ccc(N3CCOCC3)cc2)ccc1Br	14	12
OCc1cc(C(O)CNCCCCCCOCCCCc2ccccc2)ccc1O (centres undefined)	2	10
O=C(CC1SC(=NCc2ccccc2)NC1=O)NC1CC1 (centres undefined)	-1	0
CNC(=O)COC(=O)CN1C(=O)c2ccccc2C1=O	4	0
COC(=O)c1ccc(COC(=O)c2cc3c(s2)CCC(C)C3)o1 (centres undefined)	6	3
O=C(CN1CCCc2ccccc21)NC(=O)NC1CCCCC1	4	-11
O=C(COC(=O)/C=C/c1ccccc1)NC1CCS(=O)(=O)C1 (centres undefined)	10	4
CCNC(=S)NCCc1ccc(Cl)cc1	5	14
O=C(CSc1nnc2sc3ccccc3n12)N1CCCC1c1ccc2c(c1)OCCO2 (centres undefined)	18	12

Pulled by structure from the entries so far (2):
SMILES	BmaI1	BmaI1 counterscreen
CNC(=O)COC(=O)CN1C(=O)c2ccccc2C1=O	4	0
O=C(/C=C/c1cccs1)N(CC1CCCO1)C1CCS(=O)(=O)C1 (centres undefined)	5	6

Next section
SMILES	BmaI1	BmaI1 counterscreen
COC(=O)C(Cc1ccccc1)NS(=O)(=O)c1ccc(OC)cc1 (centres undefined)	13	8
OC[C@H]1O[C@@H](n2cnc3c(NC4CCCC4)nc(Cl)nc32)[C@@H](O)C1O (some centres undefined)	6	12
O=C(Cn1cnnn1)Nc1cc(C(F)(F)F)ccc1NC1CCCCC1	12	2
N#Cc1ccc(COC(=O)CN2C(=O)CSc3ccccc32)cc1	10	6
O=c1[nH]nc(SCc2cscn2)n1CCc1ccccc1	32	15
Cc1cc(C(=O)Cn2cnnc2C#N)c(C)n1CCc1ccc(Cl)cc1	19	13
N#Cc1cccc(NC(=O)c2ccc3ncsc3c2)c1	16	4
CN(C)C(=O)COc1ccccc1C(=O)O	-7	0
COc1ccc(CCN(C)c2nnnn2-c2ccccc2)cc1OC	16	16
CCOc1ccc(SCC(=O)O)cc1	8	-2
CCc1ccccc1Nc1nc(N)nc(COC(=O)Cn2cc(C(F)(F)F)ccc2=O)n1	6	-1
CC(C(=O)N(C)Cc1ccccc1)N1CCN(S(=O)(=O)c2ccccc2C(F)(F)F)CC1 (centres undefined)	-4	-1
CC(C)(CNC(=O)c1ccc2nc[nH]c2c1)N1CCOCC1	4	6
CCOc1ccc(N=C2SCCCN2C(=O)C2=CC=CN3CCS(=O)(=O)N=C23)cc1	3	0
CCOC(=O)N1CCN(c2ccnc3cc(Cl)ccc23)CC1	21	4
CNCc1ccc(Cl)c(Cl)c1	7	1
COc1cc(COC(=O)c2ccc3c(c2)S(=O)(=O)N=C2CCCCCN23)cc(OC)c1OC	18	14
c1coc(CNC2=NCCC2)c1	1	4

High-throughput results from PubChem BioAssay.

These rows are one share of the data; rates above refer to the full screens.
